# CtBP-E1A blk: blocks the CtBP interaction with E1A. AID 651724. AlphaScreen GST-E1A/His-CtBP binding, 1536-well; stronger effect = lower value; control for the full effect not named in the record. 0.49% of 340,000 active. activity change, % (test concentration not listed); in the data active means activity change below about -65%; inconclusive means about -30% to -65%; inactive means above about -30%; note: % is set by controls: 0 for no effect and ±100 for the full control effect; compound concentration not given in the record
#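 Protein mix (5X: 125 nM each GST-E1A, His-CtBP) was incubated with pinned compound 2 h at 37 deg C in dark, in 50 mM Tris pH 8.0 buffer with 300 mM NaCl. Glutathione donor and nickel acceptor beads followed; AlphaScreen signal read after 1 h.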
# Six1-Eya2 inh: blocks human Six1 binding to Eya2; AlphaScreen GST-Six1/His-Eya2 binding, biochemical; stronger effect = lower value; control for the full effect not named in the record; activity change, % (no concentration beside the values); 0.56% of 360,000 active; AID 651725; in the data active = activity change below about -65%; inconclusive = about -30% to -65%; inactive = above about -30%; note: % is set by controls: 0 for no effect and ±100 for the full control effect; compound concentration not given in the record
# Target sequence (O00167 whole entry, looked up): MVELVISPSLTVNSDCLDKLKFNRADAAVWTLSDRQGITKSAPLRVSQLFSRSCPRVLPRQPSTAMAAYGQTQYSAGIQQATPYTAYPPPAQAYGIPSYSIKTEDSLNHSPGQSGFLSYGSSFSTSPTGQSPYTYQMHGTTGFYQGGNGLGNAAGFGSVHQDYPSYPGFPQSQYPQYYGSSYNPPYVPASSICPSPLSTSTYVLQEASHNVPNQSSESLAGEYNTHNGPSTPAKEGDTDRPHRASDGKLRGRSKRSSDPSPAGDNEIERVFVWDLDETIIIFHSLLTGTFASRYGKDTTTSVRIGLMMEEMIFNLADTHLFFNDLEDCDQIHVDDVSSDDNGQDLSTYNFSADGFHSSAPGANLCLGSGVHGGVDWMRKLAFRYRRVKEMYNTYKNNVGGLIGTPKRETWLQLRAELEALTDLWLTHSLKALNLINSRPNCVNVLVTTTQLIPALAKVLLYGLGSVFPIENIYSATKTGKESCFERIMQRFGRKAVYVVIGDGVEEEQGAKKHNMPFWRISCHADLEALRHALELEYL
# Target sequence (Q15475 whole entry, looked up): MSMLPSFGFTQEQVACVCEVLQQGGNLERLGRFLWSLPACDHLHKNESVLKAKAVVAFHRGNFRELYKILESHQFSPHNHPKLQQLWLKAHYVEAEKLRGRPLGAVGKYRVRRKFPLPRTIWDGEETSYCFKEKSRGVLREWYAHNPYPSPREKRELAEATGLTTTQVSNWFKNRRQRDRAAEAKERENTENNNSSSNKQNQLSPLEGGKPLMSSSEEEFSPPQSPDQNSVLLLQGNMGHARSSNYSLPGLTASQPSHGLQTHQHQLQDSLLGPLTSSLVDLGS
#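 AlphaScreen with GST-Six1 and His-Eya2 (5X mix: 250 nM and 500 nM), glutathione donor and nickel acceptor beads; buffer 50 mM Tris pH 8.0, 300 mM NaCl, 1 mM TCEP; 1 h at 37 C in the dark.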
# gsp antagonist: antagonizes gsp, the McCune-Albright syndrome mutation. gsp-mutant cells, cAMP HTRF, 30 min; control for the full effect not named in the record. Potency, µM (doses to about 76.9 µM), inactives show at the highest dose activity change, negative = inhibition, actives largely listed as inhibitors. 0.4% of 340,000 active; active = falling curve of any shape with a large fitted effect; inconclusive = falling curve, mostly with a smaller effect; inactive = flat or rising curve; cell line not stated here;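 note: intracellular cAMP measured with PDE inhibitor Ro 20-1724 present during compound exposure; potency is the fitted concentration of half-maximal effect; % is set by controls: 0 for no effect and ±100 for the full control effect; nearly all actives have a fitted effect of over 65% in size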
#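 G418-selected cells were plated in DMEM/10% FBS for 16-24 h at 37C, then treated with compounds plus the PDE inhibitor […] (300 uM solution added) for 30 min at 37C. Intracellular cAMP was measured by HTRF after 30 min lysis at room temperature.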
# D2 potentiator: human D2 receptor positive allosteric modulation | P14416 | DiscoveRx D2 beta-arrestin cells, luminescence, 90 min; 100% = 57 uM dopamine signal | potentiation, % (test concentration not listed) | 0.23% of 360,000 active; active = potentiation of 50% or more; inconclusive = 30% to 50%; inactive = 30% or less;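 note: compound concentration not given in the record; tested on top of an EC20 dose of dopamine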
#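 PathHunter beta-arrestin assay in DiscoveRx D2 cells. Compounds were added with an EC20 of dopamine (50 nM final) for 90 min at 37 deg C. Luminescence was read 1 h after detection reagent, with 57 uM dopamine as the EC100 control.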
# gsp agonist: gsp mutant agonism; AID 624287; Potency, µM (doses to about 76.9 µM), without a hit: top-dose activation (cAMP increase), hits mostly activators; gsp mutant cells, cAMP HTRF, 30 min; control for the full effect not named in the record; 0.13% of 340,000 active; active = well fitted activation curve with a large enough effect; inconclusive = small, poorly fitted or top-dose-only effect, or another doubt; inactive = no such curve, though single readings can be large or run the other way; cell line not stated here;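 note: phosphodiesterase inhibitor Ro 20-1724 added with compounds to block cAMP breakdown; potency is the fitted concentration of half-maximal effect; nearly all actives have a fitted effect of over 60% in size; about a fifth of the inactives were tested at one dose only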
#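 Cells in DMEM/10% FBS with G418 were pretreated with compounds in DMSO plus […] (300 uM stock) for 30 min at 37C. cAMP was measured by HTRF (cAMP-d2 plus anti-cAMP antibody-K) after 30 min at room temperature.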
# D2 ag: activates the human D2 dopamine receptor | P14416 | DiscoveRx PathHunter D2 beta-arrestin, luminescence, 90 min; 100% = 57 uM dopamine signal | activation, % (no concentration beside the values) | 0.084% of 360,000 active | AID 624465; in the data active = activation above about 40%; inconclusive = about 15% to 40%; inactive = below about 15%; note: compound concentration not given in the record; the text of the record calls up to 30% inactive
#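 DiscoveRx PathHunter D2 beta-arrestin cells (2,100/well) attached overnight, then compound-stimulated 90 min at 37 C in HBSS/10 mM HEPES/0.1% Tween-20 buffer; beta-galactosidase complementation read by luminescence after 1 h at ambient temperature. Dopamine 57 uM final (EC100) as control.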
# Numbers without * were called inactive; ? = inconclusive; nt = not tested or not shown; [ ] = dose if it differs, or a comment.
SMILES,CtBP-E1A blk,Six1-Eya2 inh,gsp antagonist,D2 potentiator,gsp agonist,D2 ag
COc1cc(/C=C\C(=O)OCn2nnc3ccccc3c2=O)cc(OC)c1OC,-4,5,6%,-4,-24%,0.1
O=C1c2cccc(Cl)c2C(=O)c2c1cccc2N1CCCC1,-90*,-91*,?,1,1%,-4.4
CC(/C=C/c1ccc2c(c1)OCO2)=N\NC(=O)C(O)c1ccccc1 (centres undefined),5,-20,-22%,-4,17%[15.4 µM],-0.5
O=C1N(c2cccc3ccccc23)C(c2ccccc2)N2CCCN12 (centres undefined),6,30,-5%,-14,-11%,-2.9
COc1ccc(CC(=O)N2CCc3ccccc3C2)cc1,-1,0,7%,-12,5%,-3.8
COc1cc(C2c3c(-c4cc(C)cc(C)c4O)n[nH]c3C(=O)N2CCCO)cc(OC)c1OC (centres undefined),-1,-3,19%,9,27%,-3.5
CC(C)CCNC(=O)CCCCn1c(=O)[nH]c2ccsc2c1=O,7,-2,11%,9,10%,-1.8
O=C(CCCc1ccccc1)NCc1ccc(Cl)cc1,3,5,7%,-3,-55%[inhibitor],8.5
C=CCNc1nc(C)c(C(C)=O)cc1C#N,6,-1,13%,-5,?,-6.1
Cc1ccccc1Cn1c(=O)n(CC2CCC(C(=O)NCCc3ccccc3)CC2)c(=O)c2ccccc21 (centres undefined),9,8,-3%,-19,-1%,-0.7
CCOC(=O)CSc1nnc(-c2ccoc2C)n1-c1ccc(C)cc1,-5,-5,-20%,12,?,0.0
CCCCN(C(=O)C1CC(=O)N(c2ccc3c(c2)OCCO3)C1)c1c(N)n(CCC)c(=O)[nH]c1=O (centres undefined),5,-1,10%,-10,-1%,-0.9
CN(C(=O)CSc1nnc(-c2ccc3c(c2)OCO3)o1)C1CCS(=O)(=O)C1 (centres undefined),-16,3,13%,-3,?,-3.6
O=C1C(Cl)=C(NCCc2ccccc2)C(=O)c2ccccc21,-79*,-76*,?,-16,27%,1.9
Cc1onc(-c2ccccc2)c1C(=O)Nc1ccccc1NC(=O)c1c(-c2ccccc2)noc1C,1,-6,12%,-12,-2%[15.4 µM],4.6
COc1ccc(C(C(=O)NC2CCCCC2)N(Cc2cccs2)C(=O)Cc2c[nH]c3ccccc23)cc1 (centres undefined),-20,-21,-1%,-8,-3%,-3.3
O=C(O)C[C@H]1c2cc(F)ccc2S(=O)(=O)N1Cc1ccccc1,1,-8,-4%,-5,10%,-6.0
Cc1ccc(SCCNC(=O)c2ccc([N+](=O)[O-])c(C)c2)cc1,-7,-3,-10%,0,19%,0.7
O=c1c(Cl)c(Cl)cnn1Cc1nnc(-c2ccc(Cl)cc2)o1,8,-25,5%,-9,5%,-2.3
O=[N+]([O-])c1ccc(CSc2ccccn2)cc1,7,1,6%,-3,-3%[15.4 µM],0.9
O=C(NC1CCCCC1)C(c1ccccn1)N(C(=O)c1csnn1)c1ccccc1 (centres undefined),9,3,4%,-7,25%,-4.1
O=C(CN1C2=NCCCN2c2ccccc21)c1ccc(Cl)cc1Cl,-7,-1,17%,-36,-12%,-2.0
CCC(C)C(=O)Nc1cc(Cl)ccc1C(=O)O (centres undefined),-1,3,-12%,5,-2%,5.5
Cc1ccccc1CS(=O)(=O)CCC(=O)NCCCN1CCOCC1,1,3,20%,8,-41%[inhibitor],-3.6
Cc1ccc(S(=O)(=O)Nc2ccc3c(c2)C(=O)N([C@@H](C)CO)C[C@@H](C)[C@@H](CN(C)C(=O)NC2CCCCC2)OCCCC[C@H](C)O3)cc1,-18,15,nt,-1,nt,-3.4
CCOC(=O)c1c(C)n(C)c2ccc(OCC(O)Cn3c(C)nc4ccccc43)cc12 (centres undefined),-10,-7,10%,14,-2%,-1.0
C=Cn1nc(C)c2ccccc2c1=O,4,-2,-1%,-11,3%,-3.1
CCC(Oc1cccc(Cl)c1)C(=O)N1CCCN(C)CC1 (centres undefined),3,2,7%,-5,-27%,1.4
CCCN(CCC)CCNC(=O)CS(=O)Cc1nc(-c2ccc(C)cc2)oc1C (centres undefined),0,0,9%,-12,-34%[inhibitor],-1.7
CCOP(=O)(OCC)C(NCc1ccccc1)c1ccc(Br)cc1 (centres undefined),1,3,0%,-12,-3%,-1.6
Cc1cc(Cl)ccc1NC(=S)Nc1cccnc1,-10,0,-4%,-12,-79%[inhibitor],-3.5
O=C(c1cc(-c2ccc(F)cc2)on1)N1CCN(c2ccc(F)cc2)CC1,7,0,14%,6,6%[15.4 µM],-8.8
Cc1cc(NC(=O)c2noc3c2CCCC3)no1,14,5,7%,-3,-21%,2.6
CCNC(=O)c1cc2c(=O)n3cccc(C)c3nc2n(Cc2ccc(C)cc2)c1=N,6,10,2%,-27,-16%,-3.0
O=S(=O)(c1ccc(F)c(F)c1)N1CCCCCCC1,0,12,nt,-9,-39%[inhibitor],-0.7
CC(C)(C)OC(=O)N1CCN(C(=O)c2[nH]cnc2C(=O)NCc2ccccc2)CC1,5,3,4%,-10,nt,-3.5
O=C(O)c1oc2ccccc2c1-n1cccc1,-5,1,-20%,-12,7%,2.5
Cc1ccc(S(=O)(=O)Nc2ccc3c(c2)C(=O)N([C@H](C)CO)C[C@@H](C)[C@@H](CN(C)C(=O)Nc2cccc4ccccc24)O3)cc1,16,3,-6%,nt,nt,3.2
COCCCNC(=O)C[C@H]1C[C@H](C(=O)N2CCOCC2)[C@@]2(C)c3[nH]c4ccc(Cl)cc4c3CCN2C1=O,1,-1,-5%,-2,nt,-1.1
COc1ccc(S(=O)(=O)N2CCN(c3ncccn3)CC2)cc1[N+](=O)[O-],0,0,13%,-10,-2%,-1.5

# Five successive compounds already listed, quoted:
SMILES,CtBP-E1A blk,Six1-Eya2 inh,gsp antagonist,D2 potentiator,gsp agonist,D2 ag
O=C(NC1CCCCC1)C(c1ccccn1)N(C(=O)c1csnn1)c1ccccc1 (centres undefined),9,3,4%,-7,25%,-4.1
O=C(CN1C2=NCCCN2c2ccccc21)c1ccc(Cl)cc1Cl,-7,-1,17%,-36,-12%,-2.0
CCC(C)C(=O)Nc1cc(Cl)ccc1C(=O)O (centres undefined),-1,3,-12%,5,-2%,5.5
Cc1ccccc1CS(=O)(=O)CCC(=O)NCCCN1CCOCC1,1,3,20%,8,-41%[inhibitor],-3.6
Cc1ccc(S(=O)(=O)Nc2ccc3c(c2)C(=O)N([C@@H](C)CO)C[C@@H](C)[C@@H](CN(C)C(=O)NC2CCCCC2)OCCCC[C@H](C)O3)cc1,-18,15,nt,-1,nt,-3.4

# Some values from the results shown:
# `CCNC(=O)c1cc2c(=O)n3cccc(C)c3nc2n(Cc2ccc(C)cc2)c1=N` @ D2 potentiator: -27
# `COCCCNC(=O)C[C@H]1C[C@H](C(=O)N2CCOCC2)[C@@]2(C)c3[nH]c4ccc(Cl)cc4c3CCN2C1=O` @ gsp antagonist: -5%

# The listing picks up, starting two compounds before the break.
SMILES,CtBP-E1A blk,Six1-Eya2 inh,gsp antagonist,D2 potentiator,gsp agonist,D2 ag
COCCCNC(=O)C[C@H]1C[C@H](C(=O)N2CCOCC2)[C@@]2(C)c3[nH]c4ccc(Cl)cc4c3CCN2C1=O,1,-1,-5%,-2,nt,-1.1
COc1ccc(S(=O)(=O)N2CCN(c3ncccn3)CC2)cc1[N+](=O)[O-],0,0,13%,-10,-2%,-1.5
COC(=O)C1C(=O)N2CCCSC2=C(C#N)C1c1cccs1 (centres undefined),10,0,-7%,-10,-36%,-0.2
O=c1c2cc(NC(=S)N3CCCCC3)ccc2nc2n1CCCCC2,11,-6,7%,-8,-42%[inhibitor],-3.2
O=C(NC(Cc1ccccc1)C(=O)O)C1CCN(S(=O)(=O)c2ccccc2C(F)(F)F)CC1 (centres undefined),nt,1,8%,-5,-3%,-3.1
CC(=O)Nc1ccc(-n2c(C)ccc2C)cc1,-2,0,11%,-7,14%,5.4
COc1ccccc1Nc1nc(NCCCN(C)C)nc(N)c1[N+](=O)[O-],-11,-9,-1%,-18,25%[15.4 µM],-1.1
CC1CCCC(C)N1C(=O)CSc1nc2ncnc(N)c2[nH]1 (centres undefined),7,-1,-4%,2,-1%,0.0
CCCc1nnc(NC(=O)CCC(=O)NC2CCCc3ccccc32)s1 (centres undefined),30,22,12%,-6,-24%,-3.3
COc1ccc(Cc2nnc(NC(=O)Nc3cccc(OC)c3)s2)cc1,-1,0,1%,-10,11%[15.4 µM],0.9
COc1cc2c(cc1NC(=O)C(F)(F)F)-c1ccc(NC(=O)C(F)(F)F)cc1C2,0,-6,10%,-1,2%,-1.0
CN(CC(=O)Nc1ccc(F)cc1)C(=O)C1CCCC1,nt,2,5%,-1,-14%,-2.8
COc1ccc(CCC(=O)N(C)CC(=O)Nc2cc(C)ccc2C)cc1,-12,-2,nt,2,44%[15.4 µM],-1.1
COc1ccc(-c2[nH]c(-c3cccc(OC)c3)nc2SCC(=O)NC2CCCC2)cc1,-3,-19,?,-9,-10%,1.6
CCN(Cc1ccncc1)C(=O)c1cc(COc2ccc(C)c(C)c2)on1,7,0,-26%,6,20%,-1.1
COc1ccccc1-n1c(=O)[nH]c2c(C(N)=O)nc(CC(C)C)nc21,3,-3,9%,-3,?,-3.3
COc1ccc(/C=C/C(=O)OCC(=O)c2ccc3c(c2)NC(=O)CO3)cc1,-19,-3,2%,-11,-19%,-3.0
Cc1oc(-c2cc(F)cc(F)c2)nc1CN1CCN(C(=O)c2ccco2)CC1,-6,2,-2%,-17,-30%[inhibitor],1.2
C/C(N)=C(/C#N)C(=O)COc1ccc(Cl)cc1Cl,6,-4,4%,-4,-34%[inhibitor],-4.1
COc1ccc(NC(=O)c2ccc3c(=O)n4c(nc3c2)CCCCC4)cc1,-5,-1,-17%,-9,19%,-3.0
Cc1ccc(NC(=O)CN2C(=O)NC3(CCCCCC3)C2=O)cc1Cl,0,0,7%,-30,-36%[inhibitor],2.9
COc1ccc(CN2CC[C@@H]3CN(C(C)=O)[C@H](c4ccccc4Br)C[C@@H]32)cc1,2,-5,nt,-7,nt,-1.9
O=C(O)/C=C1\NC(=O)c2ccccc21,8,2,8%[15.4 µM],-26,-34%[inhibitor],-2.5
O=C(CSc1ncnc2ccccc12)Nc1cccc(S(=O)(=O)N2CCCC2)c1,-26,-13,9%,3,?,5.1
COc1ccc(Nc2nnc(-c3ccc(C(N)=O)cc3)c3ccccc23)cc1,5,-83*,-23%,-9,3%[15.4 µM],-4.2
CCOC(=O)c1cc(-c2ccc(F)cc2)n(CC(=O)Nc2nccs2)c1C,-12,-20,?,3,-29%,0.5
